Mtb growth – M. tuberculosis H37Rv growth inhibitors, H37Rv strain (AID 1626). 220,000 compounds, 0.95% hits. one-dose inhibition, % at 10 µM; IC50 in µM for titrated hits. M. tuberculosis H37Rv growth inhibition; higher % means a stronger effect;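 active means confirmed in a dose series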;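 further: bacteria incubated seven days before Alamar blue readout; 0% = bacteria only wells and 100% = bacteria with antibiotic wells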
Arbovirus inh – arbovirus infection inhibition; arbovirus infection cell-based antiviral screen; inhibition, % at 10 µM; 200,000 compounds, 0.37% hits; AID 1251;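 active means inhibition from about 30%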;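 further: bluetongue infection of BSR cells; cell survival read as ATP light after 72 h; 0% = infected wells without compound and 100% = uninfected wells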
RecA splice inh – blocks M. tuberculosis RecA intein splicing; cell-free RecA intein splicing, fluorescence; inhibition, %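 (about 9 µM by stock and volumes)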; 290,000 compounds, 0.75% hits; AID 2221; in the data active means inhibition above about 30%;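 further: 0% = vehicle wells and 100% = reference inhibitor control wells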
Target sequence (P9WHJ3 whole entry, looked up, canonical isoform): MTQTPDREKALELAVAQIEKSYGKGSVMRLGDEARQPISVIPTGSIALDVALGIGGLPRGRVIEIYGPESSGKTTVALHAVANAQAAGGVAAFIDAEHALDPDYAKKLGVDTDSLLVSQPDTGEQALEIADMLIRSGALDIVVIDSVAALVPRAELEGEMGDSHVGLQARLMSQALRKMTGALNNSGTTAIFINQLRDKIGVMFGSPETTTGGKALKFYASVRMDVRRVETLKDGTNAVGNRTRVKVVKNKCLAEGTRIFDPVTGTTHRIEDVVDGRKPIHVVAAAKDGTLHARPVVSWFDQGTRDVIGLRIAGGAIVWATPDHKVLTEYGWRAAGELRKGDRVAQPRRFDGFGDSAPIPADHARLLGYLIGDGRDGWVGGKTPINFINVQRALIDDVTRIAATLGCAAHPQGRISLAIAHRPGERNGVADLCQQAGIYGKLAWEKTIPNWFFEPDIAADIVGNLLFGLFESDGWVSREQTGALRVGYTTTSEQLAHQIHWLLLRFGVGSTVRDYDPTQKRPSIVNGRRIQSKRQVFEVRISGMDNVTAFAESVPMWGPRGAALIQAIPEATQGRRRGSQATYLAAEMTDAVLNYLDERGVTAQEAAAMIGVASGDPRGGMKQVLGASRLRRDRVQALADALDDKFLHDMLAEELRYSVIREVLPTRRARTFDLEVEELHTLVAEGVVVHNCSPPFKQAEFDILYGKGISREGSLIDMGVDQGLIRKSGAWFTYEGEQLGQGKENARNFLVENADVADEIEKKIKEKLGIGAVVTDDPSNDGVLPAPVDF
Mtb bLac sens – beta-lactam sensitization of Mtb H37Rv; M. tuberculosis H37Rv growth with meropenem, percent inhibition; hits of this screen are not shown here; inhibition, % at 25 µM; 330,000 compounds, 0.27% hits; AID 434955;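 active means about 74% or more and at least 40 points above the plate without the antibiotic, then above 30% in a dose series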;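 further: growth measured after seven days incubation then overnight dye step; 0% = bacteria only wells and 100% = bacteria with antibiotic; twin plates without the antibiotic show which effects depend on it; some results filed as inactive read as strong as hits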
YopH inh – inhibitors of Yersinia enterocolitica YopH tyrosine phosphatase. fluorescence Ex485/Em525. 140,000 compounds, 0.16% hits. inhibition, %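 (about 10 µM by stock and volumes)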. AID 898;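 active means inhibition of 50% or more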;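 further: controls were vehicle for no effect and minimum signal wells for full effect; inactives centre near -20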
Arbovirus inh repeat – recorded beside Arbovirus inh, whose call it bears; inhibition, %; measured here: 10K subset replicate screen; many hits read low in the repeat;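 first of two repeat runs on a subset; 0% = infected and 100% = uninfected wells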
* = called active by the depositor; · = no result given.

SMILES | Mtb growth | Arbovirus inh | RecA splice inh | Mtb bLac sens | YopH inh | others
CCC(C(=O)NC1CCCC1)N(C(=O)Cn1nnc(-c2cccs2)n1)c1cnc2ccccc2c1 (stereo not given) | -9% | 11 | -0.5 | -2 | -3
CC(NC(=O)CCN1N=C(c2ccccc2)CCC1=O)c1ccc2c(c1)OCCO2 (stereo not given) | 0% | -2 | -3.1 | 0 | ·
CC1(C(=O)O)CCC(C(=O)NC2CCCCCC2)C1(C)C (stereo not given) | -1% | 1 | -2.4 | -13 | 2
CC1Cc2ccccc2N1C(=O)CSc1ncc(-c2ccc(F)cc2)n1C (stereo not given) | · | -3 | 0.8 | -2 | -17
CCCOc1ccc(N2C(=O)CC(NCCCN3CCC(C(N)=O)CC3)C2=O)cc1 (stereo not given) | · | · | 4.6 | -5 | -16
Cc1cc(C(=O)C(C)OC(=O)c2cnccn2)c(C)n1-c1ccccc1 (stereo not given) | · | · | 0.7 | 12 | ·
CCN1C(=O)N(CC)C2NC(=S)NC21 (stereo not given) | -1% | 0 | -0.5 | -1 | 2
CCOC(=O)c1cnc2ccc(C)cn2c1=O | 13% | · | · | -8 | ·
O=C1CN=C(Nc2ccccc2Cl)N1Cc1ccc2c(c1)OCO2 | 11% | -2 | -0.7 | -2 | 4
Cc1nc(SCCCSc2n[nH]c(C)n2)n[nH]1 | -1% | -6 | 1.4 | -15 | -5
COc1cccc(NC(=O)C(NCC(C)(C)CN(C)C)c2ccccc2)c1 (stereo not given) | · | 6 | 0.7 | -5 | -21
COc1cccc(CNC(=O)CSCC(=O)Nc2ccc(C)cc2)c1 | · | · | 1.4 | -6 | ·
OC(COc1ccccc1)Cn1cc(Br)cn1 (stereo not given) | -7% | 0 | 0.2 | 0 | -24 | Arbovirus inh repeat=2
COc1cccc(-n2c(SCC(=O)N3CCc4ccccc43)nnc2-c2c[nH]c3ccccc23)c1 | 7% | -12 | -3.5 | 8 | -19
CC(C)c1ccc(NC(=O)C2C3C=CC(CC3)C2C(=O)O)cc1 (stereo not given) | · | · | -1.6 | -3 | ·
CCC(C)(C)NC(=O)C(c1ccc(O)cc1)N(C(=O)Cn1nnc2ccccc21)c1ccc(NC(C)=O)cc1 (stereo not given) | -4% | · | -0.3 | -3 | ·
CC(=O)N1CCc2cc(S(=O)(=O)NC(CC(C)C)C(=O)Nc3cc(C(=O)O)ccc3C)ccc21 (stereo not given) | · | -1 | 0.1 | 16 | -19
COc1ccc(-c2nn(-c3ccccc3C)cc2CNC(C)c2cn(C)nc2C)cc1F (stereo not given) | -2% | 0 | -2.6 | -14 | ·
CC(C)n1nnnc1-c1cc(Cl)cc(Cl)c1 | -3% | -4 | · | 5 | -36
NC1=NC(=O)/C(=C/c2c(OS(=O)(=O)c3ccc(Cl)cc3)ccc3ccccc23)S1 | 12% | -4 | -1.6 | 4 | -3
COc1ccccc1Nc1nc(-c2ccccc2)nc2ccccc12 | 9% | 0 | -3.0 | 5 | ·
O=C(NCc1cccc(Cl)c1)c1cccc(OC2CCN(C(=O)C3CC3)CC2)c1 | · | · | 2.4 | 2 | ·
CC(=O)c1cccc(NC(=O)C(C)N2CCc3ccccc3C2)c1 (stereo not given) | 1% | · | 2.0 | -2 | ·
Cc1nn(-c2ccccc2)c2c1C1(C(=O)N(C)c3ccccc31)N(c1ccccc1)C(=O)N2 (stereo not given) | -4% | -1 | 0.6 | -12 | -28
Cc1csc(NC(=O)CN(C)S(=O)(=O)c2cccc3cccnc23)n1 | -15% | -5 | · | -15 | -32
CCn1nnnc1NCc1c(OC)ccc2ccccc12 | 2% | 2 | -0.4 | -11 | ·
CC(C)NC(=O)COC(=O)CNC(=O)c1cc(Cl)cc([N+](=O)[O-])c1 | -6% | -3 | -9.2 | -1 | -16
COc1cc(C)c(C(C)C)cc1S(=O)(=O)N1CCOCC1 | 2% | -1 | -1.2 | -5 | -26
COCCCNC(=O)CCCn1c(=O)c2ccccc2n(CC(=O)Nc2c(C)cccc2C)c1=O | 4% | 4 | 0.2 | -1 | -25
COc1ccc(S(=O)(=O)Cc2ccc(C(=O)N3CCOCC3)o2)cc1 | -6% | 1 | · | -1 | -13 | Arbovirus inh repeat=1
O=C(O)c1ccc(Br)cn1 | -10% | 9 | -0.6 | 3 | ·
COc1cc(OC)cc(C(=O)NC(=S)N(Cc2ccccc2)C(C)C)c1 | · | · | 10 | 4 | ·
COc1ccccc1N1C(=O)C2CC(C)=C(C)CC2C1=O (stereo not given) | -9% | 9 | -0.9 | 6 | -45
CC(Sc1nnnn1C)C(=O)Nc1ccccc1 (stereo not given) | 2% | -4 | 3.0 | -5 | ·
COc1ccc(C(=O)c2c3ccc(C(F)(F)F)cc3[n+]([O-])n2CCCN)cc1 | · | · | 2.8 | -8 | ·
COC(=O)CC1(c2ccccc2)C(=O)c2ccccc2C1=O | -4% | 0 | 1.9 | 0 | -2
CC(=O)NC1(c2cccc(F)c2)CCN(CC(=O)NC2CCCCC2)CC1 | 2% | -2 | -0.6 | 6 | -49
Cn1c(-n2c(CCCN3C(=O)c4ccccc4C3=O)nc3ccccc3c2=O)nc2ccccc21 | 1% | -6 | 1.7 | 1 | -41 | Arbovirus inh repeat=-2
O=C(Cc1ccccc1)N1CCN(C/C=C/c2ccccc2)CC1 | -6% | 1 | 4.9 | 6 | -44
Cn1cccc1CNC(=O)Nc1ccccc1 | 0% | -2 | -15 | -4 | 6
O=C(c1cc(COc2c(F)cccc2F)on1)N1CCN(C2CCCCC2)CC1 | · | · | -1.4 | 7 | ·
CCN(CC(=O)Nc1ccccc1OC)C(=O)C1CCC1 | · | · | -1.0 | 0 | ·
O=C(NC(=S)Nc1ccc(-c2ccc(CO)o2)cc1)c1cccs1 | 0% | 4 | 8.2 | -1 | ·
CN(CC(=O)Nc1c(Cl)cccc1Cl)C(=O)c1n[nH]c2ccccc12 | · | · | -1.0 | -3 | ·
CCOc1ccccc1NC(=O)C1CCCN1C(=O)OCc1ccccc1 (stereo not given) | 1% | -2 | 3.5 | 4 | -29
O=S(=O)(Nc1cc(Sc2ncn[nH]2)c(O)c2ccccc12)c1ccccc1 | -7% | -41 | · | · | ·
COc1ccc(-c2nc(C)sc2CC(=O)O)cc1 | -11% | -1 | -0.8 | -7 | -9
Cc1ccc(NS(=O)(=O)c2ccc(Cl)c(NC(=S)NC(=O)C3CCCCC3)c2)cc1Cl | 6% | -38 | -1.9 | 13 | -5
Cc1cc(NC(=O)C2CC=CCC2C(=O)O)no1 (stereo not given) | -8% | 3 | -2.9 | 0 | -15
COc1ccccc1OCC(=O)NNC(=O)c1cccs1 | -5% | 0 | 0.6 | 4 | -44
O=C(CCS(=O)(=O)c1ccc(Br)cc1)N1CCN(c2ccccc2F)CC1 | 1% | 11 | · | 9 | -14
CC(=O)Nc1ccc(S(=O)(=O)N2CCN(c3ccc([N+](=O)[O-])c(NCCN4CCOCC4)c3)CC2)cc1 | 4% | 11 | 20 | -6 | -28
Cc1cccc(C2c3[nH]c4ccccc4c3CCN2C(=O)c2cc3c([nH]c2=O)CCCC3)n1 (stereo not given) | 27% | -2 | -4.7 | 8 | ·
CCOC(=O)C1=C(C)N(Cc2ccccc2)C(=O)NC1c1ccc(OC)cc1 (stereo not given) | -8% | 12 | 0.3 | 9 | 15
COc1ccc(Cc2nnc(NC(=O)c3cccc(C)c3)s2)cc1 | -6% | -2 | 3.4 | 0 | ·
Cc1[nH]c2ccccc2c1C(=O)CSC(=S)N(C)C1CCCCC1 | 9% | -16 | 4.2 | -10 | -23
C/C(=N\NC(=O)COc1ccc(C)cc1C(C)C)c1cc2ccccc2o1 | -7% | 21 | -0.5 | -5 | -23
CC12CCC(C(=O)NCc3ccc4c(c3)OCO4)(CC1=O)C2(C)C (stereo not given) | -3% | -3 | 1.5 | -6 | -8
OCCOCCNc1ncnc2c1cnn2-c1ccc(Cl)cc1 | 10% | -2 | -0.9 | -2 | -32
COc1ccc(Br)cc1C1SCCN1S(C)(=O)=O (stereo not given) | -4% | 4 | 1.4 | 1 | -1

Taken from the listing (two entries):
SMILES | Mtb growth | Arbovirus inh | RecA splice inh | Mtb bLac sens | YopH inh | others
OCCOCCNc1ncnc2c1cnn2-c1ccc(Cl)cc1 | 10% | -2 | -0.9 | -2 | -32
COc1ccc(Br)cc1C1SCCN1S(C)(=O)=O (stereo not given) | -4% | 4 | 1.4 | 1 | -1

Going on with the list.
SMILES | Mtb growth | Arbovirus inh | RecA splice inh | Mtb bLac sens | YopH inh | others
COc1ccc([C@@H]2[C@@H]3C(=O)N(C(C)(C)C)C(=O)[C@@H]3[C@]3(CC(C)C)C(=O)N(c4ccc(C(F)(F)F)cc4)C(=O)N23)cc1 | · | · | 0.0 | 4 | ·
O=C(/C=C/Nc1ccccc1OC(F)(F)F)C(F)(F)F | -1% | 3 | 2.0 | 8 | 20
O=C(NCCCNC(=O)c1ccc(F)cc1)c1ccc(F)cc1 | · | · | 0.0 | -5 | ·
CCOc1ccc(-c2cc(C(=O)NCCCn3ccnc3)c3cc(Br)ccc3n2)cc1 | · | · | 2.1 | 100 | ·
Cc1ccsc1/C=N/NC(=O)Cn1nc(C)c([N+](=O)[O-])c1C | -1% | · | -1.4 | -1 | ·
Cc1ccc2cc(CN(CCc3ccccc3)C(=S)NCCCN(C)C)c(=O)[nH]c2c1 | · | · | 0.8 | -7 | ·
c1ccc(CN2CCN(c3nc(N4CCOCC4)c4ccccc4n3)CC2)cc1 | -7% | · | 0.4 | 5 | -20
CC1CCN(C(=S)NCCc2ccccc2)CC1 | -2% | 4 | -0.6 | · | -9
CCOC(=O)C[C@H]1c2cc(F)ccc2S(=O)(=O)N1C(C)C | -5% | · | 0.3 | -8 | ·
CCOn1c(=O)c(-c2cc3ccccc3o2)[n+]([O-])c2ccccc21 | 12% | 0 | -49 | -4 | -7
CCOc1ccc(S(=O)(=O)N(C)C)cc1-c1nc2c(C(C)(C)C)nn(C)c2c(=O)[nH]1 | 0% | 1 | -0.1 | -3 | 0
Cc1ccc(C(=O)N2CCN(S(=O)(=O)c3ccc(C(C)C)cc3)CC2)s1 | · | · | 3.9 | -7 | ·

A portion taken from the entries so far, as a working copy:
SMILES | Mtb growth | Arbovirus inh | RecA splice inh | Mtb bLac sens | YopH inh | others
Cc1[nH]c2ccccc2c1C(=O)CSC(=S)N(C)C1CCCCC1 | 9% | -16 | 4.2 | -10 | -23
C/C(=N\NC(=O)COc1ccc(C)cc1C(C)C)c1cc2ccccc2o1 | -7% | 21 | -0.5 | -5 | -23
CC12CCC(C(=O)NCc3ccc4c(c3)OCO4)(CC1=O)C2(C)C (stereo not given) | -3% | -3 | 1.5 | -6 | -8
OCCOCCNc1ncnc2c1cnn2-c1ccc(Cl)cc1 | 10% | -2 | -0.9 | -2 | -32
COc1ccc(Br)cc1C1SCCN1S(C)(=O)=O (stereo not given) | -4% | 4 | 1.4 | 1 | -1
COc1ccc([C@@H]2[C@@H]3C(=O)N(C(C)(C)C)C(=O)[C@@H]3[C@]3(CC(C)C)C(=O)N(c4ccc(C(F)(F)F)cc4)C(=O)N23)cc1 | · | · | 0.0 | 4 | ·
O=C(/C=C/Nc1ccccc1OC(F)(F)F)C(F)(F)F | -1% | 3 | 2.0 | 8 | 20
O=C(NCCCNC(=O)c1ccc(F)cc1)c1ccc(F)cc1 | · | · | 0.0 | -5 | ·
CCOc1ccc(-c2cc(C(=O)NCCCn3ccnc3)c3cc(Br)ccc3n2)cc1 | · | · | 2.1 | 100 | ·
Cc1ccsc1/C=N/NC(=O)Cn1nc(C)c([N+](=O)[O-])c1C | -1% | · | -1.4 | -1 | ·
Cc1ccc2cc(CN(CCc3ccccc3)C(=S)NCCCN(C)C)c(=O)[nH]c2c1 | · | · | 0.8 | -7 | ·
c1ccc(CN2CCN(c3nc(N4CCOCC4)c4ccccc4n3)CC2)cc1 | -7% | · | 0.4 | 5 | -20
CC1CCN(C(=S)NCCc2ccccc2)CC1 | -2% | 4 | -0.6 | · | -9
CCOC(=O)C[C@H]1c2cc(F)ccc2S(=O)(=O)N1C(C)C | -5% | · | 0.3 | -8 | ·
CCOn1c(=O)c(-c2cc3ccccc3o2)[n+]([O-])c2ccccc21 | 12% | 0 | -49 | -4 | -7

Next part:
SMILES | Mtb growth | Arbovirus inh | RecA splice inh | Mtb bLac sens | YopH inh | others
CCN1C(=O)c2ccccc2S(=O)c2ccc(C(=O)N3CCCC3)cc21 (stereo not given) | 1% | -5 | -0.8 | -9 | -26 | Arbovirus inh repeat=-4
Cc1nc(N2CCN(Cc3ccc4c(c3)OCO4)CC2)nc2c1C(=O)CC(c1ccco1)C2 (stereo not given) | -5% | 17 | 8.5 | 11 | -28
CC(C)Sc1nc2c(c(=O)n1C)SC(C)C2 (stereo not given) | 4% | 0 | 1.6 | -3 | -15 | Arbovirus inh repeat=0
COc1cc(/C=C2\SC(=O)NC2=O)ccc1Oc1ccc([N+](=O)[O-])cn1 | -6% | · | 1.1 | 4 | ·

Screening results (PubChem)

The list is partial. The share of hits here may be higher or lower than overall.
